Screening results from PubChem.
VDR inhibitor: Inhibitors of the vitamin D receptor (VDR): qHTS; Vitamin D3 receptor (Homo sapiens), P11473; VDR-SRC2-3 peptide fluorescence polarization, 2 h; Potency, µM, inactives show max response, negative = inhibition, actives largely listed as inhibitors; hit rate 0.93% among 400,000; AID 504847, 2011; active = well fitted inhibition curve with a large enough effect; inconclusive = small, poorly fitted or top-dose-only effect, or another doubt; inactive = no such curve, though single readings can be large or run the other way; note: series mostly up to about 120 µM
Target sequence (P11473 whole entry, looked up): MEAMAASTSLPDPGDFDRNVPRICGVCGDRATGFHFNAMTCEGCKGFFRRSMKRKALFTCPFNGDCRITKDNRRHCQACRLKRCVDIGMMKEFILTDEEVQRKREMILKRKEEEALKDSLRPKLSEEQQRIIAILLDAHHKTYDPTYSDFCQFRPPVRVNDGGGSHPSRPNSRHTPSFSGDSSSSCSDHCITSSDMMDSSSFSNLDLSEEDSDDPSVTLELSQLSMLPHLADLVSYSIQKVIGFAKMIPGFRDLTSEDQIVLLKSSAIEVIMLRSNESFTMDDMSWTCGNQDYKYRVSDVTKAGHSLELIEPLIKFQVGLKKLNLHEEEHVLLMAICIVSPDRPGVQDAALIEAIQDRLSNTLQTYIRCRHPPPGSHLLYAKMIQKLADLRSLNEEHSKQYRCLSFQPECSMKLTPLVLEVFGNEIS
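Fluorescence polarization assay measuring small-molecule disruption of VDR binding to the coregulator peptide SRC2-3. Compounds were pin-transferred (23 nl) into the reagent mix and incubated 2 h at room temperature before reading.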
The depositor's hits bear a star; ? = inconclusive; & = joins results of further samples. % is set by controls: 0 for no effect and ±100 for the full control effect; potency is the fitted concentration of half-maximal effect. Not all compounds are listed. The share of hits here may be higher or lower than overall.

Start of the listing, in advance, 3 compounds:
Molecule | VDR inhibitor
CCN1C(=O)[C@H]2[C@@H](c3ccc(OC)cc3)N3C(=O)CN(Cc4ccccc4)C(=O)[C@@]3(C)[C@H]2C1=O | 3.5%
Cc1cc(C(=O)N2CCCC(N3CCN(c4ccc(F)cc4)CC3)C2)no1 (stereo not drawn) | 4.3%
COc1ccc(NCc2nnc(SCC(=O)N3CCCc4ccccc43)o2)cc1 | -2.4%

All compounds of this part, from the start:
Molecule | VDR inhibitor
CCN1C(=O)[C@H]2[C@@H](c3ccc(OC)cc3)N3C(=O)CN(Cc4ccccc4)C(=O)[C@@]3(C)[C@H]2C1=O | 3.5%
Cc1cc(C(=O)N2CCCC(N3CCN(c4ccc(F)cc4)CC3)C2)no1 (stereo not drawn) | 4.3%
COc1ccc(NCc2nnc(SCC(=O)N3CCCc4ccccc43)o2)cc1 | -2.4%
CSc1ccccc1C(=O)OCC(=O)NCCN1C(=O)CSC1=O | -12.7%
Cc1ccc(NC(=O)c2ccc3ccccc3n2)cc1S(=O)(=O)N(C)C | 4.1%
CN(C)CCCN1C(=O)C(=O)/C(=C(/O)c2ccncc2)C1c1ccccc1 (stereo not drawn) | -17.0%
O=C(COC(=O)CCSc1ccc(Cl)cc1)NCc1ccccc1Cl | 0.6%
O=C(Nc1cccc(-c2nc3ncccc3o2)c1)c1ccc2c(c1)OCO2 | ?
CC1CCCN(c2nc3c(c(=O)[nH]c(=O)n3C)n2Cc2ccccc2Cl)C1 (stereo not drawn) | 3.8%
CCOc1ccc(CN2CCNC(=O)C2CC(=O)NC2CCOCC2)cc1 (stereo not drawn) | ?
C=CC1CN(C(=O)OCC(Cl)(Cl)Cl)C2CC3c4ccc(OC)cc4NC3C3CC1C2CO3 (stereo not drawn) | -15.2%
CCOc1cc(CO)ccc1OCC(=O)N1CCCCC1 | 22.0%
COc1ccc(NC(=O)COC(=O)CC2Sc3ccccc3NC2=O)cc1 (stereo not drawn) | -3.1%
CN(C)c1ccc(/C=C2\C(=N)N3N=C(CC(=O)N4CCCCC4)SC3=NC2=O)cc1 | -8.9%
O=C(N/C(=C/c1ccc(Br)cc1)C(=O)N1CCOCC1)c1cccs1 | -4.3%
CCOC(=O)/C=C/C(=O)Nc1ccc(S(=O)(=O)N(C)c2ccccc2)cc1 | -15.9%
O=C(Nc1cccc2ccccc12)c1ccccc1NS(=O)(=O)c1cccc2cccnc12 | 9.4%
CCC(=O)Nc1ccc2oc(-c3cccnc3)nc2c1 | -12.0%
Cc1ccsc1C(=O)OCC(=O)Nc1sccc1C(N)=O | 1.8%
COc1cc(C(=O)N2CCN(Cc3ccccc3C(F)(F)F)CC2)cc(OC)c1OC | 4.6%
CC(C)CCNC(=O)NC(=O)COc1ccccc1C#N | -3.6%
O=C(O)C1CCC(=O)N1Cc1ccccc1Cl (stereo not drawn) | -1.7%
O=C(OCC(=O)N1CCc2ccccc21)c1ccc(Br)o1 | 0.7%
CCOCCCNC(=O)c1ccc2c(=O)n(CCc3ccc(OC)c(OC)c3)c(=O)[nH]c2c1 | 4.4%
C=CCNCC(O)COc1ccc(C(C)=O)cc1OC (stereo not drawn) | -3.9%
Cc1c(-c2ccccc2)[n+](=O)c(-c2ccc(Br)cc2)c(C)n1[O-] | -9.4%
Cc1cc(C(=O)COC(=O)C2COc3ccccc3O2)c(C)n1CC1CCCO1 (stereo not drawn) | 19.2%
Cc1ccccc1NC(=O)c1c(C)[nH]c(=S)c(C#N)c1-c1ccc(Cl)cc1 | -0.9%
COc1ccc(CNc2ccnc(-c3cccc(C#N)c3)n2)c(OC)c1 | -7.1%
CC(=O)NC(CC(=O)O)C(=O)NC(CCC(=O)O)C(=O)O (stereo not drawn) | -0.5%
O=C(CN1C(=O)C2CCCCN2c2ccc(C(=O)N3CCCC3)cc21)NCc1cccc(Cl)c1 (stereo not drawn) | 2.6%
C=CCn1cccc(C(=O)Nc2ccc(OC)c(Cl)c2)c1=O | 16.3%
CC(=O)C1=C(O)C(=O)N(c2ccc(C(=O)O)cc2)C1c1ccc([N+](=O)[O-])cc1 (stereo not drawn) | -23.1%
Cc1onc(-c2c(Cl)cccc2Cl)c1C(=O)N=C(N)N1CC(C)OC(C)C1 (stereo not drawn) | -3.1%
CCOc1ccc2nc(N3CCCC(C(=O)NCCc4ccc(SC)cc4)C3)sc2c1 (stereo not drawn) | -3.5%
C=C(C)Cn1c(=O)c2c(nc3n2CCN3c2cc(C)cc(C)c2)n(C)c1=O | 3.3%
O=C(/C=C/Sc1ncn[nH]1)c1ccc(Cl)cc1 | 39.8µM*
C=CCn1c(SCC(=O)NC(=O)Cc2ccccc2)nnc1-c1ccccc1F | -8.4%
CCc1ccc(C2CC(=O)c3c([nH]c(C(=O)OCc4ccc(C)cc4)c3C)C2)cc1 (stereo not drawn) | -19.8%
CCOc1ccc(S(=O)(=O)N2CCC(C(=O)Nc3ccc(C)c(S(=O)(=O)N4CCOCC4)c3)CC2)cc1 | -4.8%
Cc1ccc(NC(=O)CN2CCC3(O)CCCCC3C2c2ccc3c(c2)OCO3)c(C)c1 (stereo not drawn) | 7.6%
OCC1OC(n2cnc3c(NO)ncnc32)C(O)C1O (stereo not drawn) | -12.6%
O=C(CCC(=O)c1ccc(F)cc1)Nc1cccc(Br)c1 | 5.2%
CC[C@@]1(C(=O)OC)N[C@H](CN(C)S(=O)(=O)c2ccc(F)cc2)[C@@H]2C(=O)N(C)C(=O)[C@@H]21 | -6.2%
COCC(C)OC(=O)c1c(N)n(-c2ccc(OC)c(OC)c2)c2nc3ccccc3nc12 (stereo not drawn) | -11.1%
COc1ccc(S(=O)(=O)N2CCOCC2)cc1C(=O)N1CCCC1 | -19.3%
Cc1ccc(-c2nc3c4ccccc4ccn3c2CN2CCCCC2)cc1 | -0.2%
Cc1ccc(CN2C(=O)CCC2C(=O)NCc2ccccc2Cl)cc1 (stereo not drawn) | -9.4%
COc1ccc(N2CCN(S(=O)(=O)CCNC(=O)C3CC(=O)N(c4ccccc4)C3)CC2)cc1 (stereo not drawn) | -4.7%&10.4%
Cc1ccc(NC(=O)Cn2cc(C(=O)c3cccs3)c3ccccc32)cc1C | -6.6%
Cc1ccc(NC(=O)CN2CCN(CCN=CC3=C(O)CC(C)(C)CC3=O)CC2)cc1 | -4.0%
O=C(O)c1ccc(Oc2ccccc2)o1 | -5.9%
CCC(=O)Nc1nc(C)c(C(=O)N2CCCCC2)s1 | -8.1%
O=C(c1ccc(OC2CCN(Cc3cccc(F)c3)CC2)cc1)N1CCCCC1 | 2.9%
O=C(C1COc2ccccc2O1)N1CCN(c2nc3c(F)cccc3s2)CC1 (stereo not drawn) | 2.0%
CN1CCN(c2ncc3ncc(=O)n(C[C@H]4CCCO4)c3n2)CC1 | -3.0%
CC1(C)OC(=O)N(c2cccnc2)C1(C)O (stereo not drawn) | 16.4%
Cc1nc(NCCc2ccccc2)sc1C(=O)N(C)C | -26.2%
Cc1ccc(NC(=O)CSc2ccc(-c3ccccn3)nn2)cc1F | -12.7%&6.6%
O=C1CCNCCN1[C@H](CO)c1ccccc1 | 3.5%

Next part.
Molecule | VDR inhibitor
C[C@H](c1ccccc1)n1nnc(COCc2ccccc2)c1C#CCOCc1ccccc1 | 19.5%
CC(C)C[C@H](NC(=O)c1nc[nH]c1C(=O)NCC(=O)OC(C)(C)C)C(=O)OCc1ccccc1 | -11.4%
O=c1c2ccccc2oc2ccc(-c3ccc4[nH]ccc4c3)cc12 | -6.3%
Cc1ccc(CNC(=O)CCCCn2c(=O)c3ccccc3n(Cc3ccc(Cl)cc3)c2=O)cc1 | -7.5%
CCN1CCC2(CC1)Oc1c(OC)cccc1C1CC(c3cccnc3)=NN12 (stereo not drawn) | 1.8%
Cc1cccc(C)c1NC(=O)CN1CCN(CC(=O)NCC2(N3CCCCC3)CCCCC2)CC1 | -9.5%
CCCOc1ccc(-c2cc(C(F)(F)F)c(C#N)c(SCC(=O)O)n2)cc1 | -17.9%
COc1ccc(NC(=O)Cn2cnc3sc(C)c(S(=O)(=O)N4CCN(C)CC4)c3c2=O)cc1OC | 1.4%&7.9%
C=CCn1c(SC(C)C#N)nc2sc(CC)cc2c1=O (stereo not drawn) | 21.5%
COC(=O)NCC(C)OC(=O)Nc1ccc(Cl)cc1 (stereo not drawn) | -16.6%
Cc1cc(S(=O)(=O)Nc2ccccc2C)ccc1F | 7.4%
FC(F)(F)c1nnc2c3ccccc3c(Cl)nn12 | 8.9%
COc1ccc(CNC(=O)CCS(=O)(=O)c2ccc(Br)cc2)cc1 | -12.3%
O=S1(=O)CC/C(=N/Nc2ccc(C(F)(F)F)cn2)c2cc(F)ccc21 | -18.4%
COc1ccc(C(=O)NCC2CCCCC2)cc1S(=O)(=O)N1CCCC1 | 4.5%
CC(=O)NCCc1nc2ccccc2n1CCOc1ccccc1 | -16.0%
Nn1c(=S)[nH]c2sc3c(c2c1=O)CCCC3 | ?
COc1cc(NC(=O)CSc2nc3ccccc3cc2Cc2ccccc2)cc(OC)c1 | 2.6%
CCCCOC(=O)Sc1nc2ccccc2o1 | ?
Oc1ccccc1/C=N/Nc1cccc2cccnc12 | 4.2%
COC(=O)[C@H](Cc1ccccc1)N(C)S(=O)(=O)c1cccc(S(=O)(=O)N(C)[C@@H](Cc2ccccc2)C(=O)OC)c1 | -10.9%
Oc1ccc(/C=N/Nc2cc(N3CCCC3)nc(N3CCCC3)n2)cc1 | -41.0%
COc1ccccc1C(=O)NC(=S)Nc1ccc(S(=O)(=O)N2CCN(C)CC2)cc1 | -14.6%
COc1ccc(OC)c(C(C(=O)NCc2ccco2)N(C(=O)Cn2nnc3ccccc32)C2CC2)c1 (stereo not drawn) | -22.5%
Cc1ccc(O)c(C(=O)c2cc(C#N)c(=O)n(C(C)c3ccccc3)c2)c1 (stereo not drawn) | -3.4%
COc1ccc(S(=O)(=O)n2nc(C)c(S(=O)(=O)N3CCC(C)CC3)c2C)cc1OC | 7.0%
Cc1ccc(CNc2ccc(Cl)cc2[N+](=O)[O-])cc1 | -6.4%
COc1ccc(S(=O)(=O)NC2CC3CCC2C3)cc1 (stereo not drawn) | 5.8%
CCC(=O)N1CCc2cc(S(=O)(=O)N(C)c3cccc(C)c3)ccc21 | -10.7%
COc1cccc(NC(=O)N2C3CCCC2CC(NC(=O)C2CC2)C3)c1 (stereo not drawn) | -0.6%
COc1ccc(-c2csc(N3N=C(C)C(C)C3=O)n2)cc1 (stereo not drawn) | 2.8%
N#CC(c1ccc(F)cc1)c1ccc(C(=O)c2ccc(F)cc2)cc1 (stereo not drawn) | -7.3%
CC(C)=CCOc1c2ccoc2c(OCC=C(C)C)c2oc(=O)ccc12 | -8.7%
O=C(CCCn1c(=O)[nH]c2ccc(Br)cc2c1=O)N1CCN(c2cccc(Cl)c2)CC1 | 8.3%
O=C(NCc1ccco1)C1CC(c2ccccc2O)=NO1 (stereo not drawn) | 4.9%
COc1ccccc1/C=N/NC(=O)CC(=O)NCCc1ccccc1 | 17.7%
COc1ccc(Br)cc1CNC(=O)CCN1C(=O)COc2ccccc21 | 7.6%
CS(=O)(=O)N1CCCC(C(=O)N2CCc3ccccc3C2)C1 (stereo not drawn) | -1.7%
Cc1ccc(N(Cc2ccccc2)C(=O)c2ccc(F)c(S(=O)(=O)N3CCOCC3)c2)cc1 | -14.4%
C=CCNc1nc2ccccc2nc1NS(=O)(=O)c1ccc(Br)cc1 | -2.9%
O=C(NC(NC(=O)c1ccccc1)C(=O)c1ccccc1)c1ccccc1 | 11.0%
CC1CCN(S(=O)(=O)c2ccc3c(c2)CCN3C(=O)Nc2ccc(Br)cc2)CC1 | 12.2%
CCOC(=O)c1ccccc1NC(=O)c1cn(-c2ccc(OC)cc2)c(=O)c2ccccc12 | -4.6%
CC1(C)Cc2c(ccc3ccccc23)-c2nnc(-c3cccnc3)n21 | -16.2%
CC(=O)Nc1ccc(NC(=O)C(C)OC(=O)c2ccccc2Sc2ccccc2C#N)cc1 (stereo not drawn) | 4.7%
O=C(Cc1cccc(NC(=O)C2CCN(C(=O)C3CCCC3)CC2)c1)Nc1cccc(C(=O)N2CCOCC2)c1 | 17.3%
O=[N+]([O-])c1ccc(-c2c[nH]c(=S)[nH]2)cc1 | ?
CNC(=S)NNC(=O)c1cccn(Cc2ccc(Cl)c(Cl)c2)c1=O | -3.8%
CCN(CC)C(=O)Cn1cc(S(=O)(=O)CC(=O)Nc2ccccc2F)c2ccccc21 | -3.4%
Cc1ccc(S(=O)(=O)N2CCN(c3ccccc3)CC2)cc1C | -14.9%
Cc1onc(-c2c(F)cccc2Cl)c1C(=O)NCc1ccco1 | 2.3%
COc1ccc(S(=O)(=O)Nc2ccc(S(=O)(=O)N3CCCCC3)cc2)cc1 | 19.2%
Cc1c(C(=O)NCc2ccccc2CN2CCCC2)oc2ccc(F)cc12 | -6.7%
CCN1CC(CN(C)Cc2nc(Cc3ccccc3)no2)CC1=O (stereo not drawn) | 23.8%
Cc1nn(-c2ccccc2)c2c1C1(C(=O)Nc3ccccc31)N1C(=N2)Sc2ccccc21 (stereo not drawn) | 17.1%
CC(=O)c1ccc(N2Cc3ccccc3C3(CCOCC3)C2=N)cc1 | ?
CC(C)(C)C(=O)NC1=NCCS1 | 8.0%
Cc1ccc(-n2c(C(C)C)nc3oc4ccccc4c(=O)c3c2=O)cc1 | -4.2%
COc1ccc(-n2c(C)cc(SC)c(C(C)=O)c2=S)cc1 | 12.6%
O=C(O)CCCN1C(=O)c2cccc3cccc(c23)C1=O | -9.0%
O=C1NC(=Nc2ccccc2)c2c1cccc2[N+](=O)[O-] | -24.3%
O=C(CCCOc1ccc(Cl)cc1Cl)N/N=C\C1CCCCC1 | 1.6%
